Source: PubChem
NPYLR7 agonist = mosquito NPYLR7 agonism. HEK293T NPYLR7/Galpha15, GCaMP6s calcium fluorescence. activation, % at 10 µM. 270,000 tested, 0.15% active; in the data active = activation above about 40%;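 also: 0% = vehicle and 100% = reference agonist at the receptor; some compounds past the cut are filed as inactive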
NPYLR7 agonist max-min = recorded beside NPYLR7 agonist, whose call it bears; activation, %; measured here: Max-Min RFU normalised activation; some inactives read as strong as hits;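 span of the calcium signal over five minutes; 0% = vehicle and 100% = native peptide agonist; compound fluorescence can raise it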
* = called active by the depositor; & = joins results of further samples. The list is partial; rates above refer to the full screens.

Results follow in this order: NPYLR7 agonist, NPYLR7 agonist max-min
- Cc1ccc(CN(Cc2ccc(F)cc2)CC(O)COCc2ccccc2)c(C)c1 (stereo not given)
    15, 29
- COC(=O)c1sc(N2C(=O)C(=O)C(=C(O)c3ccc(F)cc3)C2c2ccc(F)cc2)nc1C (stereo not given)
    1, -2
- CCc1ccc(-c2nc(SC(CC)C(=O)Nc3cc(C)on3)n[nH]2)cc1 (stereo not given)
    2, 9
- Cc1cccc(C(=O)N(Cc2cccc(Cl)c2)Cc2nc3cc(Cl)ccc3o2)c1
    5, 3
- Cc1ccccc1C1c2[nH]c3ccccc3c2CCN1Cc1ccn[nH]1 (stereo not given)
    -10, -12
- O=C(Nc1ccccc1)N1CCn2cccc2C1c1ccncc1 (stereo not given)
    12, 7
- CCCCc1cc(=O)[nH]c(-c2ccc(CN(C)CC)cc2)n1
    14, -1
- Cc1csc(NC(=O)CN2CCSCC2c2ccc(C)o2)n1 (stereo not given)
    14, 13
- COc1cccc(-c2cc(C(=O)Nc3ccc(C)cc3)n(-c3ccc(F)cc3)n2)c1
    15, 16
- O=C(c1ccc(Cl)c(Cl)c1)N1CCCC(OCc2cccc(F)c2F)C1 (stereo not given)
    -4, 0

Going on with the list.
Results follow in this order: NPYLR7 agonist, NPYLR7 agonist max-min
- Cc1ccc(OCCN2CCC2(C)C(=O)Nc2cccc(NS(C)(=O)=O)c2)cc1 (stereo not given)
    4, 3
- CC1CCN(Cc2nc3c(c(=O)n(C)c(=O)n3C)n2C(C)C)CC1
    -6, -7
- CC(C)(C(=O)NCC(=O)N1CCCC1)c1ccccc1F
    11, 13
- CCOC(=O)c1cc(-c2ccc(OC)cc2)n(C2CCN(C(=O)Cc3ccc(OC)cc3)CC2)n1
    27, 20
- COC(=O)c1cccc(CS(=O)(=O)NCc2ccc(C)cc2)c1
    9, 7
- Nc1nc2c(s1)C[C@H]1C[C@H]2[C@@H](Oc2ccccn2)CN1C(=O)c1c(Cl)cccc1Cl
    15, 21
- CCc1ccccc1NC(=O)N1CCC2(CC1)C(=O)N(CC(=O)NCCc1ccccn1)CN2c1ccccc1
    7, 11
- C=CCN1C[C@H]2CN(C)c3ccccc3[C@@H]2N(C(=O)OC)CCC1=O
    -2, 1
- Cn1nnc2c(N3CCN(C(=O)CSCc4ccccc4)CC3)ncnc21
    0, 16
- O=C(COc1cccc(Cl)c1)N1CCC(Cc2ccc(F)cc2)CC1
    13, 5

(list continues)
Results follow in this order: NPYLR7 agonist, NPYLR7 agonist max-min
- COC(=O)c1cc2n(n1)CCCN(C(=O)c1cccc3[nH]c(C)nc13)C2
    -4, -8
- CCCCC1(C)NC(=O)N(CC(=O)Nc2ccc(Cl)cc2C)C1=O (stereo not given)
    -1, -4
- COc1ccc(-n2c(SCc3ccc(C(=O)NCc4ccco4)cc3)nnc2-c2ccccc2[N+](=O)[O-])cc1
    15, 30
- Cn1c(=O)c2cn3c4ccccc4nnc3c2n(C)c1=O
    4, 0
- CCCN1CCN(c2nc3c(c(=O)[nH]c(=O)n3C)n2Cc2ccccc2F)CC1
    1, 42
- Cc1nc(C#N)c(N2CCOCC2)o1
    3, 8
- CCCN(Cc1nnc(-c2ccco2)o1)C(=O)C=Cc1cc(Cl)cc(Cl)c1
    4, 8
- CCOC(=O)c1cc(-c2ccc(Cl)cc2)n(-c2ccc(C(=O)NCCc3ccc(OC)c(OC)c3)cc2)n1
    -1, -7
- COCCO[C@H]1[C@H](NC(=O)C(C)C)c2ccccc2C12CCN(Cc1nc3ccccc3s1)CC2
    8, 1
- CCCn1cc(NC(=O)c2cccc(CN3CC=CC3)c2)nn1
    13, 6

4 entries from above in another layout.
CCCN(Cc1nnc(-c2ccco2)o1)C(=O)C=Cc1cc(Cl)cc(Cl)c1
  NPYLR7 agonist = 4
  NPYLR7 agonist max-min = 8
Cc1nc(C#N)c(N2CCOCC2)o1
  NPYLR7 agonist = 3
  NPYLR7 agonist max-min = 8
CCOC(=O)c1cc(-c2ccc(Cl)cc2)n(-c2ccc(C(=O)NCCc3ccc(OC)c(OC)c3)cc2)n1
  NPYLR7 agonist = -1
  NPYLR7 agonist max-min = -7
CCCCC1(C)NC(=O)N(CC(=O)Nc2ccc(Cl)cc2C)C1=O (stereo not given)
  NPYLR7 agonist = -1
  NPYLR7 agonist max-min = -4

The list goes on:
Results follow in this order: NPYLR7 agonist, NPYLR7 agonist max-min
- Cc1ccc(-c2nnc(Nc3ccc(C(N)=O)cc3)c3ccccc23)cc1S(=O)(=O)NC(C)(C)C
    -17, -20
- Nc1ccc(N2CCC(Cc3ccccc3)CC2)c(C(=O)NCc2ccc(F)cc2)c1
    16, 13
- CC1(C)CC2CC(C)(CN2C(=O)CCC2(Cc3ccco3)CCC(=O)N2)C1 (stereo not given)
    15, 4
- COCCN(CCC(=O)Nc1ccc(C)cc1)c1nc(Cc2cccc(OC)c2)ns1
    -1, 6
- O=C(CN1CCc2sccc2C1c1ccccc1)N1CCNC1=O (stereo not given)
    -23, -23
- NC1(CNC(=O)c2ccc(C(F)(F)F)o2)CCCCCC1
    4, 1
- O=c1[nH]c(CSc2nnnn2C2CC2)nc2scc(-c3ccco3)c12
    3, 2
- O=C(Cn1c(CO)cnc1SCC(=O)N1CCc2ccccc21)NC1CCCC1
    6, 4
- CCC(=O)Nc1nc(-c2ccc(SC)cc2)cs1
    2, 0
- Cc1ccccc1CO[C@]1(C(=O)NCC(C)C)CC(OCc2c(F)cccc2F)[C@@H]2OC(C)(C)O[C@@H]2C1 (stereo not given in full)
    4, 13

Further entries follow:
Results follow in this order: NPYLR7 agonist, NPYLR7 agonist max-min
- COC(=O)CCc1ccc(C)c(N)c1
    -15, -14
- O=C(NCCC(F)(F)F)C1=CN2CCN(Cc3ccccc3)C(=O)N=C2O1
    -1, -4
- COCCNC(=O)c1sc(=O)n(Cc2ccc(SC)cc2)c1C
    6, 1
- O=C(c1ccc[n+]([O-])c1)N1CCc2c([nH]c3ccccc23)C1C1CCCCC1 (stereo not given)
    2&14, 4&4
- CNC(=O)C(C1CCCC1)N1CCN(C(=O)c2ccc(Cl)cc2Cl)CC1 (stereo not given)
    -4, -4
- Cn1ccnc1C(NC(=O)c1cc(F)cc(F)c1)c1ccccc1F (stereo not given)
    0, 5
- O=c1c2ccccc2c(-c2cccs2)nn1CC1(O)CCCCC1
    -28, -25
- CC(C)CCC(=O)NCC(=O)Nc1cc(C(C)C)[nH]n1
    -4, -5
- O=C(CNCCO)N1N=C(c2cccs2)CC1c1cccs1 (stereo not given)
    7, 6
- CC(C)c1nc(Cn2ccnc2C(C)Cc2ccc3c(c2)OCO3)no1 (stereo not given)
    2, 1

Next part.
Results follow in this order: NPYLR7 agonist, NPYLR7 agonist max-min
- CC=CCn1c(SCCCCCCCC)nc2c1c(=O)[nH]c(=O)n2C
    0, 10
- NC(=O)c1nccnc1C(=O)N1CC2(CCCC2)c2ccccc21
    5, 3
- Cc1ccc(-n2nnc(C(=O)OCc3ccccc3)c2C)cc1
    -17, -21
- CCCCNC(=O)c1csc(CN(CCCC)C(=O)Nc2ccc(F)cc2F)n1
    8, 17
- CC(C)(C)NS(=O)(=O)c1cc(Br)cnc1N
    1, -2
- COCCN(CC(=O)N(C)C)c1ccnc(C)n1
    3, -1
- Cc1ccc2[nH]c(-c3cccs3)c(CCC(=O)O)c2c1
    16, 14
- Clc1c(CN2CCC(N3CCCC3)C2)sc2ccccc12 (stereo not given)
    15, 11
- Cc1c(Cl)cccc1NS(=O)(=O)c1c[nH]c(=O)[nH]c1=O
    10, 5
- CCCCOC(=O)N1C[C@@H](C(=O)OCC)[C@@H]2Oc3cc(OC)ccc3[C@@H]21
    3, 4

The results go on:
Results follow in this order: NPYLR7 agonist, NPYLR7 agonist max-min
- CCOC(=O)CCC(=O)Nn1cnc2c(cnn2-c2ccc(C)cc2)c1=O
    5, 1
- CC(=O)Nc1nnc(C23CC4CC(CC(C4)C2)C3)s1
    0, -1
- O=c1cc(CO)oc(C(Nc2ccccn2)c2cccc(F)c2)c1O (stereo not given)
    -1, 8
- CCCC1NC(=O)N(CC(=O)Nc2ccc(Br)cc2C)C1=O (stereo not given)
    8, 4
- O=c1[nH]nc(Cn2cccn2)n1Cc1ccccc1
    3, 0
- O=c1[nH]c2ccccc2n1CCCN1CCCc2ccccc21
    -3, -2
- c1ccc(Oc2ncccc2-c2noc(C3CCOC3)n2)cc1 (stereo not given)
    1, 1
- Cc1c(CC(=O)NCc2ccco2)c2c(n1CC1CCCO1)CCCC2=O (stereo not given)
    9, 1
- COc1ccccc1Oc1coc2cc(O)ccc2c1=O
    1, 1
- Cc1cc(N2S(=O)(=O)c3ccccc3S2(=O)=O)ccc1Br
    -1, -1

(cont.)
Results follow in this order: NPYLR7 agonist, NPYLR7 agonist max-min
- Cc1cc(C)cc(NC(=O)CCN(C)Cc2nc(C3CC3)no2)c1
    -2, -6
- Cc1nc(NC(=O)c2cc(Cl)ccc2OC(F)F)n[nH]1
    -5, -7
- Cc1ccccc1CC(=O)NC1CC(=O)N(CCCc2ccccc2)C1 (stereo not given)
    12, 4
- C=CCN(CC(O)COCc1ccccc1)CC1CC(c2ccccc2)=NO1 (stereo not given)
    -3, -2
- COc1cc(CN(C)Cn2nc3c(Cl)cc(Cl)cn3c2=S)ccc1OC(F)F
    0, -2
- CC1CCN(S(=O)(=O)NCCc2ccccc2F)CC1
    1, 1
- Nc1[nH]n(-c2ccccc2)c(=O)c1N=Nc1c(Cl)cc(Cl)cc1Cl
    -3, -13
- Cc1cc(C)nc(NC(=O)c2cccc(CN3CCCC(C(N)=O)C3)c2)c1 (stereo not given)
    8, -2
- COc1ccc(CN2CCN(C(=O)Nc3cc(C)on3)CC2)cc1OC
    13, 3
- COc1ccc2c(c1)C1(CC(=O)N(C)C1=O)C(=O)N2CCCn1c(=O)n(C)c2ccccc21 (stereo not given)
    -16, -18

(next part)
Molecule	NPYLR7 agonist	NPYLR7 agonist max-min
CCCCCCc1ccc(C(=O)Nc2ccc(C3SCC(=O)N3c3cccc(F)c3C)cc2)cc1 (stereo not given)	4	4
O=C(Cn1nc2c(c1NC(=O)c1ccccc1F)CSC2)NCCc1ccccc1	-2	-2
CCOc1ccc(NC(=O)N2CCc3cc(OC)c(OC)cc3C2CNC(=O)COC)cc1 (stereo not given)	14	11
COc1ccc2[nH]c(=O)c(CN(C)Cc3ncc[nH]3)cc2c1	8	3
CS(=O)(=O)N1CCC(Nc2cnn(Cc3ccccc3)c(=O)c2Cl)CC1	-2	1
COc1ccccc1C(=O)N(Cc1cccc(OS(=O)(=O)c2ccc(F)cc2)c1)C(C)C	10	9
CN(Cc1ccc(Cl)c(Cl)c1)C(=O)c1cc2c(cn1)CN(CCC(=O)OC(C)(C)C)C2	25	17
Cc1ccc2oc(C(=O)NCCc3nc4ccccc4[nH]3)c(C)c2c1	-1	-5
COCc1[nH]nc(N)c1-c1ccccc1	-1	-5
CCOC(=O)C1(Cc2ccc(OC)cc2)CCN(C(=O)c2scc3c2OCCO3)CC1	-6	-12
O=C(Nc1ccccc1)C1CSCN1S(=O)(=O)c1ccc(Cl)cc1C(F)(F)F (stereo not given)	-3	-4
CCCCN(C)c1c(C)nc2c(OCc3cccc(Cl)c3)cccn12	-4	-7
CCc1cc(=O)[nH]c2nnc(SCC(=O)OC)n12	-7	-9
N#CCCn1nnc(CCN2C(=O)c3ccccc3C2=O)n1	6	17
CCN1C(=O)C2(SC(C)(C)CN2C(=O)Nc2cccc(OC)c2)c2ccccc21 (stereo not given)	6	1
CC1(C(=O)NC2CCCC2)CCN1C(=O)CCc1ccccc1 (stereo not given)	7	4
CCOC(=O)c1ccc2c(c1)nc(SCc1cc(OC)c(OC)c(OC)c1)n2Cc1ccc(C(F)(F)F)cc1	18	9
S=C(Nc1cccnc1)NN(c1ccccc1)c1ccccc1	-10	-15
NC(=O)C(c1ccc(F)cc1)N1CCCN(C(=O)c2ccccc2)CC1 (stereo not given)	-2	-1
COc1ccc(S(=O)(=O)C(CNC(=O)CC(C)(C)C)c2cccs2)cc1 (stereo not given)	1	-2

(further entries)
Molecule	NPYLR7 agonist	NPYLR7 agonist max-min
C[C@H](NC(=O)N1CCSC1)c1ccccc1	-17	-23
COc1ccc(C(=O)Nc2nc(-c3cc(Cl)sc3Cl)cs2)cc1OC	14	7
CNC(=O)c1ccc(-c2cccc(-n3cccn3)c2)s1	2	2
CSC(=C(C#N)C#N)N1CCN(c2ccccc2)CC1	3	5
COc1ccc(CC(=O)Nc2nnc(SCC(=O)Nc3ccccc3F)s2)cc1	-10	-19
O=S(=O)(Cc1cc2c(cc1Br)OCCO2)c1nc2ccccc2[nH]1	-2	-6
COc1ccc(-c2cc3ccc4c(c3oc2=O)CN(C2CCS(=O)(=O)C2)CO4)cc1OC (stereo not given)	3	6
CCOC(=O)CCc1c(C)nc2ncnn2c1N1CCN(C(=O)[C@H](C)OC(C)=O)CC1	25	11
C=C(Br)Cn1cnc2c(F)cc(Br)cc2c1=O	6	3
c1ccc2sc(-c3ccc(CNCCCn4ccnc4)o3)nc2c1	4	1
CCOC(=O)c1c(C)nn(-c2ccc(C(=O)NC(C)CC(C)C)cc2)c1C (stereo not given)	-7	-8
CCOC(=O)CCC(=O)Nc1nn(C)c2c1C(c1ccco1)CC(=O)N2 (stereo not given)	-13	-18
c1ccc(Cn2cnc3c(N4CCOCC4)nccc32)cc1	-5	-12
Nc1nc(Nc2cccc(F)c2)nc(N2CCCC2)c1[N+](=O)[O-]	1	-2
CC(C(N)=O)N(C)Cc1ccc(Br)cc1 (stereo not given)	5	-1
Clc1cccc(CSc2nnc(-c3ccc[nH]3)o2)c1	1	1
O=C(NCCn1ncc2c(=O)n(Cc3ccc([N+](=O)[O-])cc3)cnc21)C1CCCC1	0	-7
C=CCCC(=O)N1CCC(=O)N(C)c2ccccc2C(OC(=O)NCC)C1 (stereo not given)	2	10
NC(=O)CSc1nc2ccccc2c(=O)n1CCc1ccc(Cl)cc1Cl	2	6
CCc1cccc2c(C(CC(=O)NCc3cccnc3)c3ccc4c(c3)OCO4)c[nH]c12 (stereo not given)	2	13

Compound profiles, as listed above. Screens in order: NPYLR7 agonist | NPYLR7 agonist max-min
`C=C(Br)Cn1cnc2c(F)cc(Br)cc2c1=O` is listed as 6 | 3
`CSC(=C(C#N)C#N)N1CCN(c2ccccc2)CC1` is listed as 3 | 5
